Compound activity deposited in PubChem by several laboratories.
LANA-H2A inh: blocks KSHV LANA binding to histone H2A/H2B; cell-free LANA-H2A/H2B peptide, fluorescence polarization; AID 2629; 0.6% of 320,000 active; Q9QR71; inhibition, % (test concentration not listed); in the data active = inhibition mostly above about 10%, no sharp cut-off; inactive = mostly below about 6.7%;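 note: stock transfer was 7.5 nL into about 10 µL; 0% = median of vehicle wells and 100% = median of positive control wells; one replicate is shown; the record names a cut of 25% in any replicate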
T cruzi repl: T. cruzi replication inhibition; T. cruzi beta-gal in NIH3T3, luminescence, 90 h; inhibition, % (concentration not given with the values); 1.4% of 300,000 active; AID 1885;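 active = mean inhibition across valid replicates above about 55%, limit read from the data; inconclusive = mean below that limit but half or more replicates reach it; inactive = mean below it, under half of replicates reach it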;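 note: signal also drops with host cell toxicity which is not excluded here; 0% = plate median of DMSO wells and 100% = zero luminescence signal; higher percent means less beta-gal luminescence so fewer parasites; stock transfer was 50 nL into about 50 µL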
MLL AF4-AF9 inh: MLL-AF4/AF9 protein interaction inhibition; P42568; AlphaScreen, biotin-AF4 peptide binding to FLAG-AF9; inhibition, % at 10 µM; 0.47% of 350,000 active;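 active = every replicate reaching a set inhibition limit, whatever the replicate mean, cut at about 25% in these data; inconclusive = mean inhibition reaches that limit but some replicates miss it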;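 note: 0% = plate neutral control median and 100% = total signal loss; the record names both 10 and 1 µM as test concentration; the first replicate is given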
Target sequence (P42568 whole entry, looked up): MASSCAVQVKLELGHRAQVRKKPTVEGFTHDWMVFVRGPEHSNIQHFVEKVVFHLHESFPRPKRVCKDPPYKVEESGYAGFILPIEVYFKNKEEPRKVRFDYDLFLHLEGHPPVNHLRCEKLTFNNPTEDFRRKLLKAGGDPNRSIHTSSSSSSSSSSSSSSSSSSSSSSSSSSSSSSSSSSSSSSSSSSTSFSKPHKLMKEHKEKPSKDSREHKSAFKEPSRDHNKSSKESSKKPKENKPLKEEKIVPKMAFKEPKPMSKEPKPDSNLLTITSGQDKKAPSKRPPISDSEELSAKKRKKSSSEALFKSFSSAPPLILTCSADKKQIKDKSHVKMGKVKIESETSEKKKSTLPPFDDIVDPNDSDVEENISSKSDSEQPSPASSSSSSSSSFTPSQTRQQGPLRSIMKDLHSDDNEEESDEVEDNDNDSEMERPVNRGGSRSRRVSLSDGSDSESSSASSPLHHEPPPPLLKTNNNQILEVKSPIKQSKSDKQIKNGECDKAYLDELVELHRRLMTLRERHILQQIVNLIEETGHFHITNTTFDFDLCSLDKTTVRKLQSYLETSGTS
Beta cell apopt: blocks beta cell apoptosis. INS-1E cytokine-induced death, ATP luminescence, 48 h; percent of positive-control rescue, neutral wells zero. protection from apoptosis, % (concentration not given with the values). 0.8% of 300,000 active. AID 435005;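 active = all replicates at 75% or more, or half of them and the mean; inconclusive = half reach 75% but not the mean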;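 note: 0% = cytokine-treated negative control wells and 100% = positive control rescue; higher means more ATP so stronger rescue from cytokine killing; wells of about 40 µL received 100 nL stock; the first replicate is given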
Calb FLC: affects C. albicans growth with fluconazole; growth inhibition, % (no concentration beside the values); C. albicans CaCi-2 (fluconazole-resistant clinical isolate) + fluconazole, Alamar Blue growth, 48 h; 0.57% of 300,000 active;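 active = most replicates above 75%; inconclusive = exactly half above 75%; inactive = most below 75%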;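 note: all wells also contain fluconazole at 8 µg/ml as a sub-toxic cotreatment; 0% = median of DMSO wells and 100% = median of geldanamycin control wells; wells of about 8 µL received 7.5 nL stock; the first replicate is given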
Bfl-1 A1 inh: inhibitors of the anti-apoptotic protein A1, read as caspase activation. MEF A1-2A-BIM cells, Caspase-Glo 3/7 luminescence, 3 h; percent of clofoctol response, vehicle zero. caspase activation, % (concentration not given with the values). 0.066% of 330,000 active;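 active = over half of replicate activation scores above 10%, or exactly half above 10 with the replicate mean above 10; inconclusive = replicate mean below 10 yet half the replicates above 10; inactive = over half of replicates below 10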;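 note: wells of about 30 µL received 50 nL stock; many hits fall short of the cut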
RanGTP-Imp inh: inhibitors of RanGTP-importin-beta interaction, primary screen, biochemical, FRET, CFP-Ran, YFP-importin-beta, homogeneous | cell-free CFP-Ran/YFP-importin-beta FRET ratio | inhibition, % (concentration not given with the values) | 1.1% of 300,000 active;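 active = most replicates above 15%; inconclusive = exactly half above 15%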;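 note: 0% = DMSO wells and 100% = Ran loaded with GDP instead of GTP; wells of about 40 µL received 100 nL stock; the first replicate is given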
Vif A3G: HIV-1 Vif–A3G interaction blockers – biochemical, TR-FRET, GST-Vif 1-94, biotin-A3G peptide, dose response retest, primary screen (AID 1117319) | inhibition, %; hits with a dose series show IC50 in µM | TR-FRET GST-Vif / biotin-A3G peptide binding; higher % means a stronger effect; test concentration not given here; strong numbers were not always called active | 0.57% of 260,000 active;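 active = above the screen mean plus three standard deviations and confirmed in dose response; inconclusive = results disagree or hit not tested in dose response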;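 note: Vif residues 1-94 fused to GST binding biotinylated APOBEC3G peptide 110-148; 0% = full assay without inhibitor and 100% = GST in place of GST-Vif; retest series ran down from 100 µM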
* marks the source's active call; other numbers are inactive results; ? = inconclusive; / = no result given; & = joins results of further samples. Compounds as they come; any-hit rate near 4.3%.

SMILES	LANA-H2A inh	T cruzi repl	MLL AF4-AF9 inh	Beta cell apopt	Calb FLC	Bfl-1 A1 inh	RanGTP-Imp inh	Vif A3G
CCOc1ccc(C(=O)C(CCC(CN(C)C)C(=O)c2ccc(OCC)cc2)CN(C)C)cc1 (stereo not drawn)	/	31	/	/	-20	/	3.3	-17%
COc1cccc(CNC(=O)C2CC(=O)N(c3ccc4c(c3)OCCO4)C2)c1 (stereo not drawn)	-7.0	-19	-1.4	/	3	-0.3	4.3	-1%
O=C(CSc1n[nH]c(-c2cccs2)n1)NC1CCS(=O)(=O)C1 (stereo not drawn)	-0.3	-12	-8.5	-7	4	0.0	2.6	/
O=C(O)c1ccc(CN2CCOCC2)o1	-1.3	-9	-0.5	-3	-26	-0.3	4.5	-12%
COc1cccc(CN2CCNC(=O)C2CC(=O)N(Cc2cnn(C)c2)C(C)C)c1 (stereo not drawn)	5.5	-9	-0.1	-6	7	0.8	2.7	/
Cc1nnc(N2CCCCC2)c2ccccc12	2.7	9	/	-5	-22	0.2	-3.9	2%
Cc1ccc(S(=O)(=O)N2CCOCC2)cc1NC(=O)CSc1n[nH]c(N)n1	-1.8	2	0.6	-2	-17	-0.8	-2.9	2%
CC(NC(=O)c1cc(=O)[nH]c2ccccc12)c1ccccc1 (stereo not drawn)	-5.3	-2	-2.1	0	-1	0.6	-1.9	-13%
CCOCCCNC(=O)C1CCN(S(=O)(=O)c2c(C)noc2/C=C\c2ccc(OC)cc2)CC1	-5.2	10	/	-6	2	0.3	-2.9	3%
COc1ccc(/C=C(/C(=O)c2cccs2)N2C=CC=CC2=C(C#N)C#N)cc1	/	3	6.8	/	29	/	22*	10%
COc1ccc(C(C(=O)NC2CCCC2)N(C(=O)c2snc(-c3ccc(F)cc3)c2N)c2cccc(F)c2)cc1 (stereo not drawn)	-2.1	-8	/	7	32	0.5	3.8	1%
CSc1ccc(CN(C)C(=O)CNC(=O)c2ccc3c(c2)OCO3)cc1	-4.4	-9	1.0	3	-2	-0.7	-0.6	/
COc1ccc(NC2CCCN(C(=O)c3cccc(C)n3)C2)cc1OC (stereo not drawn)	/	-15	-5.3	/	15	/	4.6	3%
COc1cccc(Nc2c(Nc3cccc(OC)c3)c(=O)c2=O)c1	-4.6	1	-26	-8	4	1.5	0.1	3%
COc1ccc(-c2cn3cc(C)ccc3n2)cc1F	-0.7	11	2.8	-4	?	0.4	?	/
Cc1cc(C)cc(NC(=S)N2CCC(NC(=O)c3ccc(F)cc3)CC2)c1	4.8	-23	-1.3	-1	19	-0.2	4.5	-8%
CCOC(=O)CC(=O)NC(CC(=O)OC)c1ccc(C(C)C)cc1 (stereo not drawn)	3.2	-4	-1.7	3	-7	0.0	-3.1	1%
O=Nc1c(O)n(Cc2ccc(Cl)cc2)c2ccccc12	2.3	-1	/	1	42	0.8	-2.1	?
COC(=O)c1ccccc1N=Nc1c(N)n[nH]c1N	-18	-18	5.8	-2	7	0.7	-4.5	-1%
CCNc1nc(NCc2ccccc2)nc(SCC(N)=O)n1	/	-10	-0.1	-3	2	1.5	2.4	14%
CN(C)C(=O)N1CCN(c2nc(-c3ccccc3)cs2)CC1	2.4	2	1.4	-8	-2	0.9	7.6	/
O=C(Nc1cccc(-c2cn3cccnc3n2)c1)c1cccs1	4.7	18	/	3	2	0.5	-1.9	/
CCN1CCN(C(c2cccs2)C(C)NC(=S)Nc2cccc(C)c2C)CC1 (stereo not drawn)	-1.7	-5	-5.7	4	-10	-0.4	1.6	-1%
COc1ccc(-c2csc(NC(=O)c3ccccc3NS(=O)(=O)c3ccc(F)c(F)c3)n2)cc1	2.6	35	-3.7	87*	45	-0.7	1.7	/
Cc1ccc(-c2nc(CN(Cc3c(C)nn(C)c3C)C(C)C)c(C)o2)o1	4.8	-7	-0.5	-2	-16	0.5	-2.3	5%
C=CCOc1nc2c(c(=O)n(Cc3ccc(Cl)cc3)c(=O)n2C)n1C	3.9	12	/	5	-6	0.5	-0.4	-2%
N#Cc1ccsc1NC(=O)C1CCN(S(=O)(=O)c2cccs2)CC1	2.2	-7	0.7	-2	4	0.4	-3.0	3%
CC(Oc1ccc(Br)cc1)C(=O)Nc1ccc(S(=O)(=O)Nc2nccs2)cc1 (stereo not drawn)	2.7	5	0.1	-4	5	-0.6	-0.8	/
COc1cc(NC(=O)COC(=O)/C=C/c2ccc(O)c(OC)c2)cc(OC)c1	-2.8	2	-1.2	-5	-10	0.1	?	/
Cc1cc(-n2ccnc2)n2c(nc3ccccc32)c1C#N	-6.7	-11	8.9	0	-12	1.5	2.8	>100µM*
Cc1ccc(C(=O)NCC(=O)OCC(=O)NC(C)c2ccccc2)s1 (stereo not drawn)	-0.7	-56	-3.1	-1	30	0.6	1.6	1%
O=C(CSCCN1C(=O)c2ccccc2C1=O)Nc1ccc2ccccc2c1	-1.5	0	/	-3	3	0.1	2.8	/
O=C(Nc1nccs1)c1ccc(COc2ccccc2Br)o1	-2.0	-5	/	1	21	-0.8	3.1	3%
COc1ccc(N2CCN(C(=O)CCNS(=O)(=O)c3ccccc3)CC2)cc1	-1.0	-5	0.0	-1	-4	0.1	-0.5	12%
Cc1cc(CN(C)C(=O)c2ccc(OC3CCN(Cc4ccccn4)CC3)cc2)on1	-0.6	0	-1.3	-6	42	0.6	2.8	/
COc1cc(CC(=O)Nc2nc(C)cs2)cc(OC)c1OC	-1.0	-8	2.2	0	-7	0.3	4.0	3%
CCOc1ccc(OCC)c(-c2c(=O)n(OCc3ccccc3Br)c3ccccc3[n+]2[O-])c1	-0.1	42	/	14	1	1.2	-2.7	6%
CC(=O)C[C@@H](O)CC(=O)[C@@H]1OC(=O)CC/C=C\Cc2ccccc21	-2.9	/	5.1	5	/	-1.7	/	/
COc1ccc(/C=C/C(=O)NCCSCc2ccco2)cc1OC	-0.9	-10	-3.1	6	4	0.1	2.8	14%
CCn1nnnc1NCc1ccc(OCc2ccc(F)cc2Cl)c(OC)c1	3.1	7	-2.3	2	-6	-1.3	0.5	1%
O=C(c1ccc(N2CCOCC2)c([N+](=O)[O-])c1)N1CCN(Cc2ccccc2)CC1	-0.4	9	2.7	-3	-3	0.9	-0.6	/
c1ccc(Nc2ccccn2)nc1	8.3*	-6	-1.2	-3	-1	-0.2	-0.9	5%
C#CCO[C@@H]1C[C@H](n2ccc(NC(=O)c3ccccc3)nc2=O)O[C@@H]1CO	1.6	4	-1.8	-7	-2	-0.8	4.3	/
CC(NC=O)c1nc2ccccc2n1CCc1ccccc1 (stereo not drawn)	-5.6	-3	-2.5	-1	-1	0.6	1.7	3%
CCOc1ccc(C(=O)NN2CCOCC2)cc1	-13	-6	-9.2	-2	7	0.3	-0.4	-6%
CCCCc1ccc(-c2ccc(Br)cc2)nc1	-0.2	-4	-5.3	3	-22	-2.7	-4.8	5%
COC(=O)c1ccc(NC(=O)CSc2ccccc2)cc1	4.0	-13	/	-6	12	0.0	0.9	-6%
Cc1nc2nc(-c3cccnc3)[nH]n2c(=O)c1C	3.9	5	/	3	1	-2.0	6.6	0%
CCSCCOC(=O)C1=C(C)NC2=C(C(=O)CCC2)C1c1coc2ccccc2c1=O (stereo not drawn)	-0.2	-4	/	-8	-3	-0.5	-1.1	12%
C#CCCOC(=O)N1C2=NC(C(=O)OC)=C(C(=O)OC)[C@@H]3N(C)c4ccccc4[C@]23C[C@H]1C(=O)OC	1.5	?	/	-11	0	0.2	0.0	26%
Cc1cccc(OCC(=O)OC2CCN(C)CC2)c1	2.2	-4	/	0	-5	-0.1	2.6	-2%
Cc1ccc(C(=O)CSc2nnc3c4ccccc4nc(Cc4ccccc4)n23)cc1	-3.7	10	-2.8	2	-3	-0.4	6.6	-88%
O=C(COC(=O)c1cccc(Br)c1)Nc1cccc2c1C(=O)c1ccccc1C2=O	-0.8	-9	/	11	25	-3.3	-0.1	-29%
Cc1cc(OCC(F)(F)C(F)(F)C(F)(F)C(F)(F)C(F)(F)C(F)F)nc(N)n1	0.0	-6	/	-2	0	-1.9	-0.3	-3%
Cc1cc(C)c(-c2noc(C(=O)OC(C)(C)C)c2C(=O)OC(C)(C)C)c(C)c1	3.6	26	/	4	-3	-0.7	-1.6	-2%
C=CCC[C@@H](Cc1ccc(F)cc1)C(=O)OC[C@@H](Cc1ccccc1)NC(=O)[C@H](CC=C)CC(=O)NCCO	-139	/	-1.5	0	/	1.0	/	4%
O=C(NCCCN1CCCC1)c1cc2c(Cl)nc3ccccc3c2s1	3.2	54	8.7	6	7	1.2	5.9	-10%
CC(Oc1cc2oc(=O)c3c(c2cc1Cl)CCCC3)C(=O)NCc1cccnc1 (stereo not drawn)	2.3	3	-0.4	7	-1	0.2	2.6	/
COC(=O)C(C)n1cnc2c(nnn2Cc2ccc(Cl)cc2)c1=O (stereo not drawn)	1.0	-33	/	3	2	-0.3	-1.3	3%
CCC(C)N1C(=O)S/C(=C/c2ccc3c(c2)n(C)c(=O)n3C)C1=O (stereo not drawn)	-0.7	2	11	/	10	0.2	5.0	11%

Additional records.
SMILES	LANA-H2A inh	T cruzi repl	MLL AF4-AF9 inh	Beta cell apopt	Calb FLC	Bfl-1 A1 inh	RanGTP-Imp inh	Vif A3G
NNc1nc(-c2ccccc2Cl)c2cc(Br)ccc2n1	0.8	8	1.3	5	2	0.4	3.1	/
Cc1ccc(S(=O)(=O)N2CCN(c3cnn(-c4ccccc4)c(=O)c3Cl)CC2)cc1	6.0	-8	/	6	-2	-0.2	2.3	4%
CC(C)(C)C(=O)[C@@H]1[C@@H]2C(=O)N(c3ccc4c(c3)OCCO4)C(=O)[C@@H]2C2c3ccccc3C=CN21 (stereo partly drawn)	-2.7	30	/	4	-5	-0.2	-2.5	18%
Nc1cc[n+](CC(=O)c2ccccc2)cc1	-1.0	-2	6.4	4	-4	1.6	0.2	/
COc1ccc(CNC(=O)N2CCN(c3ccccc3OC)CC2)cc1	-0.2	13	-1.7	1	0	-0.7	-1.6	0%
CCc1ccc(C(=O)CSc2nc3ccccc3c(=O)[nH]2)cc1	-3.7	-3	/	1	2	-0.6	4.3	-1%
COC(=O)c1ccc(NC(=O)CCN2CCCCC2)cc1	2.7&9.6	-2&7	/	-6&-6	-1&-4	0.1&-0.8	-2.2&4.2	10%&1%
CN(C)C(/C=C/Nc1ccc([N+](=O)[O-])cc1)=C(C#N)C#N	2.1	2	0.5	-2	-4	0.0	-0.3	20%
C=CCOc1cccc(C2/C(=C(/O)c3ccc(F)cc3)C(=O)C(=O)N2CCN2CCOCC2)c1 (stereo not drawn)	-4.8	-9	/	-3	3	-0.4	-0.7	0%
COc1cccc(NC(=O)CN(C)C(C)C(=O)Nc2ccc(S(=O)(=O)N3CCOCC3)cc2)c1 (stereo not drawn)	-2.2	3	1.3	1	-10	0.6	3.8	/
CCOc1ccc(NC(=O)CNC(=O)c2cccs2)cc1	-3.9	16	-7.5	-4	-6	0.1	3.7	0%
Cc1sc(NC(=O)C(C)C)c(C(=O)Nc2ccccc2)c1C	1.5	18	/	-4	2	0.8	-0.6	-4%
